Compound activity as filed in PubChem BioAssay.
GIRK2 activ: activators of human GIRK2 potassium channels | G protein-activated inward rectifier potassium channel 2 (Homo sapiens), P48051 | HEK293-GIRK2 thallium flux, Thallos fluorescence | calls only for hits at 25 µM | actives 0.05% (n = 63,000) | AID 1259325, 2017;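 active means among the strongest 0.2% of first-round signals and kept after retests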;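 further: first round at about 10 µM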
Target sequence (P48051 whole entry, looked up): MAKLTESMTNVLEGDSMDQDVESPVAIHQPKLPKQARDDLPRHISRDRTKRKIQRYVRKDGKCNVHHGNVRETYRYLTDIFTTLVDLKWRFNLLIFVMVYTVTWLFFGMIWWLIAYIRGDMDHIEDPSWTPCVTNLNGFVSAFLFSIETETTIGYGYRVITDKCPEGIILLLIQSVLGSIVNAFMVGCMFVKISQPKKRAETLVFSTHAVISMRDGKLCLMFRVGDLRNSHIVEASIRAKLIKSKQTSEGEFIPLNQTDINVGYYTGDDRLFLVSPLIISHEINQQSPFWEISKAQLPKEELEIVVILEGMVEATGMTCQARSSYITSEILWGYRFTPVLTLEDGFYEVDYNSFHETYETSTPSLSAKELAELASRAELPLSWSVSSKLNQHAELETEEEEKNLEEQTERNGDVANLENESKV
Calls only; i = inactive. These rows are one share of the data (hit frequency here may not be typical).

item | SMILES | GIRK2 activ
1 | CC(C)(C)C1CCc2c(sc3nc(CCC(=O)Nc4ccccc4)[nH]c(=O)c23)C1 (centres undefined) | i
2 | COC(=O)c1ccc(OC)c(Cn2cnc3c(-c4ccc(Cl)cc4)csc3c2=O)c1 | i
3 | O=C(c1nc2ccccc2s1)N(CC1CCCO1)c1nc2c(C(F)(F)F)cccc2s1 (centres undefined) | i
4 | CN1CCN2c3ncccc3Cc3ccccc3C2C1 (centres undefined) | i
5 | C=C(C)COc1ccc(-c2ncncc2Oc2ccc(OC)cc2)c(O)c1 | i
6 | Cc1cccc(NC(=O)CSc2c(C(C)C)cnc3c2c(=O)n(C)c(=O)n3C)c1 | i
7 | Cc1cc(=O)oc2cc(OCC(O)CN3CCN(c4ccc(F)cc4)CC3)ccc12 (centres undefined) | i
8 | CC(C)c1ccc(OCC(=O)Nc2cc(-c3cccs3)nn2-c2nc(C(C)C)cc(=O)[nH]2)cc1 | i
9 | Cc1cccc(Oc2nccn3c(=O)n(CC(=O)Nc4ccccc4C(F)(F)F)nc23)c1C | i
10 | O=C(Nc1ccc(Cn2cnc(C(=O)Nc3cccc(Cl)c3)c2)cc1)c1cccc(F)c1 | i
11 | COc1ccc(NC(=O)C(=O)NCCCN2CCN(c3ccccc3)CC2)cc1OC | i
12 | COc1cccc(N2C(=O)C3N=NN(Cc4nc(-c5ccccc5)no4)C3C2=O)c1 (centres undefined) | i
13 | O=C1CCC(N2C(=O)c3ccccc3C2=O)C(=O)N1 (centres undefined) | i
14 | Cn1c(=O)n(CCCc2ccccc2)c(=O)c2c1nc1oc(-c3ccccc3)cn12 | i
15 | Cc1cc(C(=O)Nc2nc(C(=O)NCCCn3ncccc3=O)co2)no1 | i
16 | CN1CCN(c2nnc(SCC(=O)Nc3ccc(OC(F)(F)F)cc3)s2)CC1 | i
17 | CCc1ccc(/C=C/C(=O)Nc2ccc([N+](=O)[O-])cc2)o1 | i
18 | C=CCNC(=O)N1CC(=O)Nc2ccccc21 | i
19 | CCOc1ccc(C(=O)N2CCN(c3ncnc4c3nnn4-c3ccc(C)cc3)CC2)cc1 | i
20 | COc1ccccc1CNC(=O)CN1CCN(c2cccc(Cl)c2)C1=O | i
21 | Cc1sc(NC(=O)c2ccccc2)c(-c2nc3ccccc3s2)c1C | i
22 | O=S(=O)(c1cccc2c(S(=O)(=O)N3CCCCC3)cccc12)N1CCCCC1 | i
23 | COc1ccc(-c2noc(CSc3nc4[nH]ncc4c(=O)n3-c3ccccc3)n2)cc1 | i
24 | CCN(CC)CCn1c(C)cn2c3c(=O)n(Cc4ccccc4Cl)c(=O)n(C)c3nc12 | i
25 | O=C(CCCc1nnc2c(=O)n(-c3ccc(Cl)cc3)ccn12)N1CCC(N2CCCCC2)CC1 | i
26 | Cc1ccc2c(Nc3ccc4c(c3)OCCO4)c(C(=O)N3CCC(C)CC3)cnc2n1 | i
27 | CN(C)c1cccc(C(=O)NCC2CCN(S(=O)(=O)c3cccnc3)CC2)c1 | i
28 | CCOc1cccc2sc(N(CCn3nc(C)cc3C)C(=O)c3ccco3)nc12 | i
29 | CCS(=O)(=O)CCn1c([N+](=O)[O-])cnc1C | i
30 | Cc1ccccc1-c1noc(-c2sccc2S(=O)(=O)N(C)c2ccc(F)cc2)n1 | i
31 | COCCNC(=O)Cc1ccc(NC(=O)NCc2ccc(Cl)cc2)cc1 | i
32 | O=C(Nc1ccccc1-c1ccccc1)c1ccc(-n2ccnc2)nn1 | i
33 | Cc1ccccc1C(=O)Nc1ccc(N2CCCS2(=O)=O)cc1 | i
34 | Cc1ccc(-n2nnc(C(=O)N3CCN(C(=O)C4CC4)CC3)n2)cc1 | i
35 | Cc1ccc(NC(=O)c2cn(C)nc2S(=O)(=O)N2CCN(c3cc(Cl)ccc3C)CC2)cc1 | i
36 | CCn1c(=O)c2c(nc3n(CCO)c(C)cn23)n(C)c1=O | i
37 | O=C(c1ccco1)N1CCN(C(=O)c2csc3nc(-c4ccc(F)cc4)cn23)CC1 | i
38 | Cc1ccc(C(=O)Oc2c(S(=O)(=O)c3ccccc3)c(C)nn2C(C)(C)C)cc1[N+](=O)[O-] | i
39 | CCOc1ccc(C2NC(=O)NC(C)=C2C(=O)Nc2ccc(OC)cc2OC)cc1OC (centres undefined) | i
40 | CCCOC(=O)c1ccc(Oc2c(-c3ccc(O)cc3O)n[nH]c2C)cc1 | i
41 | Cc1ccc(NC(=O)Cn2nc3c(N4CCCC(C)C4)nccn3c2=O)cc1C (centres undefined) | i
42 | O=C(NCCS(=O)(=O)NCc1ccco1)c1ccc2c(c1)OCO2 | i
43 | COc1ccc(Cl)cc1N1CCn2c1nc1c2c(=O)[nH]c(=O)n1C | i
44 | COc1ccccc1OCC#CCNC(=O)c1c(F)cccc1Cl | i
45 | O=C(Cc1c(F)cccc1Cl)NCCn1nc(-n2ccnc2)ccc1=O | i
46 | O=C(NCc1ccc(Cl)cc1)NCC1CCN(C(=O)Nc2ccc(F)cc2)CC1 | i
47 | Cc1ccc(-c2csc3c(=O)n(CC(=O)Nc4cccc(Cl)c4C)cnc23)cc1 | i
48 | c1cnc(-c2noc(C3CN(Cc4ccoc4)C3)n2)nc1 | i
49 | CCc1ccccc1NC(=O)CN1CCC(Cn2c(C)nc3ccccc32)CC1 | i
50 | CC(C)(C)c1ccc(S(=O)(=O)NCC(=O)N2CCCC2)cc1 | i

(list continues)
item | SMILES | GIRK2 activ
51 | CC(=O)c1ccc(NC(=O)c2nnn(-c3ccc(F)cc3)n2)cc1 | i
52 | Cc1cc(C(=O)Nc2nc(C(=O)NCCc3ccc(S(N)(=O)=O)cc3)co2)no1 | i
53 | O=C(CCc1csc(NC(=O)c2ccco2)n1)Nc1nccs1 | i
54 | Cc1cccc(CN2CCc3c(OCC(=O)NC4CCCCC4)cccc3C2=O)c1 | i
55 | COc1ccc(C2OCC3(O)C(c4ccc(OC)c(OC)c4)OCC23)cc1OC (centres undefined) | i
56 | COC(=O)c1sc2cccc(F)c2c1S(=O)(=O)Nc1ccccc1C | i
57 | O=C(Nc1ccc2c(c1)OCO2)N1CCCC(c2nnc(-c3cccs3)o2)C1 (centres undefined) | i
58 | CCc1[nH]nc(S(=O)(=O)NCCc2cccs2)c1C(=O)OC | i
59 | O=C(c1cccs1)N1CCN(C(=O)C2CC2c2cccs2)CC1 (centres undefined) | i
60 | Nc1c(-c2cc(=O)oc3ccc(Cl)cc23)oc2ccccc12 | i
61 | COCCn1c(=O)c2c(nc3n(-c4cccc(OC)c4)c(C)c(C)n23)n(C)c1=O | i
62 | COc1ccccc1-c1cc(C(=O)NCc2nc3ccccc3[nH]2)[nH]n1 | i
63 | Cc1cc(C)n(-c2ccc(N3CCC(C(=O)NCc4sc(-c5cccs5)nc4C)CC3)nn2)n1 | i
64 | CCOc1ccccc1NC(=O)c1nnn(-c2ccc(CC)cc2)c1C | i
65 | COc1ccc(C2(C(=O)NCC(C)(O)c3ccco3)CCOCC2)cc1 (centres undefined) | i
66 | SCCc1nc2ccccc2[nH]1 | i
67 | Cn1cc(-c2ccco2)nc1CCNC(=O)CSc1ccc(F)cc1 | i
68 | O=C(Nc1nonc1-c1ccc(Cl)cc1)c1ccccc1Br | i
69 | Cc1cccc(NC(=O)Nc2cc(N3CCN(C)CC3)ncn2)c1C | i
70 | Cc1cc(C)cc(NC(=O)CN2CCC(C(=O)NCc3nc4ccccc4[nH]3)CC2)c1 | i
71 | COC(=O)N1CCc2ccc(Br)cc2C1C(=O)Nc1cccc2cccnc12 (centres undefined) | i
72 | COc1cc2nc3sc(Nc4ccc(F)c(Cl)c4)nn3c(=O)c2cc1OC | i
73 | O=C(COc1ccc(Cl)cc1Cl)N1CCN(C(=O)C2CC2c2ccccc2)CC1 (centres undefined) | i
74 | Cc1ccc(NC(=O)CN2CCN(Cc3nc4ccccc4[nH]3)CC2)cc1Cl | i
75 | O=C1CC(c2nc(-c3ccccc3)no2)CN1c1ccc2c(c1)OCO2 (centres undefined) | i
76 | C=CCn1c(=O)c2ccccc2n(Cc2nc(-c3ccccc3OCC)no2)c1=O | i
77 | O=C(NCC(O)c1ccoc1)C(=O)Nc1cccc(N2CCCCC2=O)c1 (centres undefined) | i
78 | O=C(NC1CCCCC1)N1CCN(c2ccc3nnc(-c4ccco4)n3n2)CC1 | i
79 | O=C(NCCn1nc(C2CC2)n(-c2ccccc2)c1=O)c1ccc(Cl)s1 | i
80 | CCCNC(=O)/C(C#N)=C1\N=C(NC(=O)c2ccc(Cl)cc2Cl)c2ccccc21 | i
81 | COc1ccc(-c2cc(=O)[nH]c(SCc3nc(-c4cccc(OC)c4)no3)n2)cc1 | i
82 | COc1ccc(OC)c(C(=O)Cn2cccc(-c3nc(C)no3)c2=O)c1 | i
83 | COc1nn(C)cc1C(=O)NCCN1CCN(C(=O)OC(C)(C)C)CC1 | i
84 | C=CCn1c(=O)c(C(=O)Nc2ccc(C)cc2)c(O)c2ccccc21 | i
85 | CC(=O)Oc1ccc2c(c1)O/C(=C\c1ccc(Cl)cc1Cl)C2=O | i
86 | O=C1NC(=O)C(c2cccc(Cl)c2)=C1Nc1ccc(O)c(Cl)c1 | i
87 | COc1ccccc1C(=O)N1CCN(c2cc(Nc3ccccn3)ncn2)CC1 | i
88 | Cc1ccc(-c2csc3nnc(SCC(=O)NCc4ccc5c(c4)OCO5)n23)cc1 | i
89 | CC1=C(C(=O)Nc2ccc3[nH]ncc3c2)C(c2ccc(F)cc2)NC(=O)N1 (centres undefined) | i
90 | CC(=O)c1nnn(-c2ccc([N+](=O)[O-])cc2)c1C | i
91 | CCOCC(=O)Nc1ccc(-c2nnc(N(C)c3ccccc3)s2)cc1 | i
92 | O=S(=O)(Cc1ccccc1)N1CCOC(Cc2ccccc2)C1 (centres undefined) | i
93 | Cc1noc(C2CN(CC(=O)N(C)c3ccccc3)C2)n1 | i
94 | COc1ccccc1OCC(=O)N1CC(Oc2nc3c(Cl)cccc3s2)C1 | i
95 | CCCN(C)c1nccn2c(=O)n(CC(=O)Nc3ccc(C#N)cc3)nc12 | i
96 | C=CCn1c(SCC(=O)Nc2ccc(F)cc2F)nc2nc(N3CCCCC3)sc2c1=O | i
97 | Cc1cc(C)cc(NCCn2c(C)c(C)n3c4c(=O)[nH]c(=O)n(C)c4nc23)c1 | i
98 | COc1ccc(-c2cc(N3CCN(C(=O)Cc4c(F)cccc4Cl)CC3)ncn2)cc1 | i
99 | CC(C)S(=O)(=O)c1ccc(CC(=O)N2CCC(CSCc3ccco3)CC2)cc1 | i
100 | CCc1nnc(C2CCN(C(=O)Cc3ccc(Cl)cc3)CC2)s1 | i

Going on with the list.
item | SMILES | GIRK2 activ
101 | CCCCOc1ccc(C(=O)Nc2cnc(N3CCOCC3)nc2)cc1 | i
102 | O=C(NCc1ccc(F)cc1)c1cc(OCc2ccccc2)no1 | i
103 | CC(=O)NS(=O)(=O)c1ccc(NC(=O)C2CN(C(=O)c3cc(C)on3)C2)cc1 | i
104 | CCNc1nc(Nc2ccc(F)cc2)c2n[nH]nc2n1 | i
105 | O=C(NCc1cccs1)N1CC(c2nc(Cc3ccccc3)no2)C1 | i
106 | O=c1[nH]c2nc(N3CCN(c4ccccn4)CC3)ncc2c(=O)n1Cc1ccccc1 | i
107 | Cn1c(SCC(=O)Nc2ccccc2C(F)(F)F)nc2c(-c3ccccc3)c[nH]c2c1=O | i
108 | COc1cccc2cc(C(=O)Nc3ncc(C)s3)oc12 | i
109 | Cc1cccc(OCCCC(=O)N2CCCCC2)c1C | i
110 | O=c1[nH]c2nc(NCc3ccco3)ncc2c(=O)n1-c1ccccc1 | i
111 | CCOc1ccc(N(C)S(=O)(=O)c2ccsc2C(=O)Nc2ccc(Br)cc2)cc1 | i
112 | O=C(NCCC(O)C1CC1)C(=O)Nc1cccc(N2CCCC2=O)c1 (centres undefined) | i
113 | C=C(C)Cn1c(C(C)(C)C)cn2c3c(=O)n(C)c(=O)n(C)c3nc12 | i
114 | Cc1ccccc1-n1nnc(C(=O)NCCCn2cccn2)c1-c1ccncc1 | i
115 | CCOc1ccccc1C(=O)N1CCN(c2ccc(-c3noc(C(F)(F)F)n3)cn2)CC1 | i
116 | Cc1ccc(S(=O)(=O)NCCNc2cc(-n3cccc3)ncn2)c(C)c1 | i
117 | COc1cccc(C(=O)Nc2oc3ccccc3c(=O)c2-c2ccc3c(c2)OCO3)c1 | i
118 | COc1ccc(N2CCN(CCn3c(C)cn4c5c(=O)n(C)c(=O)n(C)c5nc34)CC2)cc1 | i
119 | Cc1cc(NCc2ccccc2)n2nc(C(F)(F)F)nc2n1 | i
120 | CCc1nccn1CC1CCN(C(=O)c2cc(-c3cccc(OC)c3)n[nH]2)CC1 | i
121 | COc1ccc(NC(=O)CN2C(=O)NC3(CCCCC3C)C2=O)cc1OC (centres undefined) | i
122 | Cn1cccc(C(=O)N2CCc3nc(NC(=O)c4cccs4)sc3C2)c1=O | i
123 | O=c1c(Oc2ccccc2Br)coc2c3c(ccc12)OCN(CCN1CCOCC1)C3 | i
124 | CCOCCn1c(=O)c2c(nc3n(-c4ccc(C)c(C)c4)c(C)cn23)n(C)c1=O | i
125 | COc1ccc(C)c2sc(N(CCN3CCOCC3)C(=O)c3cc(C)oc3C)nc12 | i
126 | CC(O)(CNC(=O)C(=O)Nc1ccc2c(c1)OCCO2)c1ccco1 (centres undefined) | i
127 | COc1cc(C)c(S(=O)(=O)N2CCN(c3cccc(Cl)c3)CC2)cc1C | i
